# MT1-MMP act inh = inhibitors of human MT1-MMP activation. 360,000 tested, 0.061% active. HT1080 RFP-PRO-GFP cells, GFP/RFP ratio fluorescence, overnight; percent of plate control window, DMSO zero. GFP/RFP ratio change, % at 20 µM;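 active = GFP/RFP ratio change of at least 30% with cell ATP level not reduced by more than half and red fluorescence within 50% of control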; also: strong numbers were not always called active
#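 Test system: HT1080 cells expressing an RFP-PRO-GFP fluorescent reporter construct / Compound dosing: single-point 20 µM compound, 1% DMSO / Schedule: cells overnight before dosing, compound overnight, 37 °C, 5% CO2 / Evaluation: GFP/RFP fluorescence ratio / Control set: DMSO and RFP-L50D-GFP cell wells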
# CSC inhib = cancer stem cell inhibition | cancer stem cell-like cells viability, luminescence | inhibition, % at 7.5 µM | 300,000 tested, 1.1% active;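 active = mean at 75% or more and at least half the replicates too; inconclusive = mean and replicates disagree; tested in HMLE shEcad cells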;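 also: 0% = median of negative and 100% = median of positive control wells; the first replicate is given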
# PABP polyA inh = PABP-poly(A) binding inhibition; 290,000 tested, 1% active; P11940; PABP-poly(A) RNA binding, fluorescence polarization; inhibition, % at 35 µM;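 active = 50% or more with normal probe brightness, or confirmed in later tests; inconclusive = above 50% with abnormal brightness, or retests that disagree; inactive = below 50% or failed in later tests; about a fifth of its hits are not listed in these tables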;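 also: calls also rest on retests at 20 µM and on dose response follow-up; controls were probe without protein and protein plus probe with vehicle; some compounds called inactive have numbers as strong as hits; many hits fall short of the cut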
# Rce1 inh = blocks yeast Ras-converting enzyme. Q03530. yeast membranes, quenched prenylated peptide cleavage fluorescence. 290,000 tested, 0.27% active. calls only;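 active = fall in fluorescence gain of 50% or more versus controls, with final raw signal at or below 3038400; inconclusive = same 50% fall but final raw signal above 3038400; inactive = fall in fluorescence gain under 50%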;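 also: plate controls were neutral control wells for no effect and wells lacking membranes for full effect; tested at 10 µM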
# Target sequence (Q03530 whole entry, looked up): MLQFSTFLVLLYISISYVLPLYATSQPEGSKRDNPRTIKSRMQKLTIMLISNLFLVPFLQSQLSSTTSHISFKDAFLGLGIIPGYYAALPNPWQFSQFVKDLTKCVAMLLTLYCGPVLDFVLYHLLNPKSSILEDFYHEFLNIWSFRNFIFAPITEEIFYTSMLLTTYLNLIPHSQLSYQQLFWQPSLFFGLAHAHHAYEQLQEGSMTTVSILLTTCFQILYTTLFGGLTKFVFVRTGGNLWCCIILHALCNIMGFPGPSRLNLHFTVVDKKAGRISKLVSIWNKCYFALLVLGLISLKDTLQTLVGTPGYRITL
# Env fusion inh = HIV envelope-mediated fusion inhibition; 360,000 tested, 1.1% active; HeLa-JRFL Env/CEM21 cell fusion, luciferase; inhibition, % at 12.3 µM;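 active = mean replicate inhibition score of at least 50 and every replicate individually at or above 50; inconclusive = only one of the two criteria met; inactive = mean below 50 and not all replicates reaching 50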;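 also: 0% = plate neutral controls and 100% = maraviroc near 300 nM; one replicate is shown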
# eIF4H FP inh = inhibitors of RNA binding by human eIF4H; Q15056; eIF4H fluorescence polarization binding assay; inhibition, % at 35 µM; 290,000 tested, 0.94% active; AID 2012;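 active = 50% or more with normal probe brightness, or confirmed in later tests; inconclusive = above 50% with abnormal brightness, or retests that disagree; inactive = below 50% or failed in later tests; about a fifth of its hits are not listed in these tables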;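 also: calls also rest on retests at 20 µM and on dose response follow-up; 0% = protein and probe with vehicle and 100% = probe without protein; strong numbers were not always called active; many hits fall short of the cut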
# UUG fidelity = yeast start codon fidelity modulation | S. cerevisiae UUG-firefly luciferase reporter, luminescence/redox ratio | activity score, % at 18.7 µM | 350,000 tested, 0.13% active | AID 602363;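 active = replicate mean at a twofold rise or more, about +100% in these data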;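 also: firefly luciferase made from a UUG start codon reports start codon fidelity; reporter light over untreated wells divided by growth signal over untreated wells; some hits fall short of that in this replicate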
# eIF4H FP inh retest = also measured in eIF4H FP inh; calls as there; inhibition, %; compound at 20 µM; confirmation average;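 mean of two retest wells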
# PABP polyA inh retest = second read-out of PABP polyA inh, no call of its own (marks repeat the call); inhibition, %; compound at 20 µM; confirmation repeats;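 mean of two retest wells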
# MT1-MMP act inh RFP = recorded beside MT1-MMP act inh, whose call it bears; RFP signal change, %; measured here: RFP expression control read;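 0 = vehicle wells; hits needed this value within 50% of zero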
# * = called active by the depositor; i = inactive; u = inconclusive; x = no result given; & = joins results of further samples. Only part of the results is shown. The share of hits here may be higher or lower than overall.
SMILES,MT1-MMP act inh,MT1-MMP act inh RFP,CSC inhib,PABP polyA inh,Rce1 inh,Env fusion inh,eIF4H FP inh,UUG fidelity,others
O=C(N/N=C/c1ccc(F)c(F)c1)c1cc2c(s1)-c1ccccc1CC2,4.4,5.5,14.6,-8.4,i,x,1.8,x,
COc1ccc(-c2nnc(SC(C(=O)c3c[nH]c4ccccc34)c3ccccc3)n2N)cc1OC (centres undefined),4.7,-8.3,12.0,5.4,i,x,6.2,-10.9,
Cc1cc(N)n(-c2ccc([N+](=O)[O-])cc2)n1,-0.2,-1.0,-3.5,-10.4,i,-2.2,-1.2,x,
C[C@H](CO)N1C[C@H](C)[C@@H](CN(C)Cc2ccc3c(c2)OCO3)Oc2ccc(NS(C)(=O)=O)cc2C1=O,0.0,2.2,-22.8,x,x,-7.3,x,-10.3&-12.5,
CCn1nc(C)cc1C(=O)n1nc(C)c(Sc2ncccn2)c1C,-3.4,-2.0,1.3,-1.4,i,6.3,-5.2,x,
Cc1cc(NS(=O)(=O)c2ccc(NC(=O)Cc3ccc([N+](=O)[O-])cc3)cc2)no1,2.1,4.6,23.6,6.7,i,9.7,4.5,-9.4,
COc1ccc(-c2ncn(CCC#N)c2[N+](=O)[O-])cc1,1.0,1.3,-8.8,2.6,i,-30.7,-7.7,x,
CC(C)c1cc(O)c(-c2ccccc2)c(=O)n1-c1ccc(Cl)cc1,-3.1,-2.5,-12.6,13.4,i,2.7,-3.1,-3.1,
Cn1c(C(=O)NC2CCCCC2)cc2c(=O)n3ccccc3nc21,5.6,0.6,-0.6,x,i,-4.1,x,-5.4,
O=C(CN1CCN(S(=O)(=O)c2ccc(Cl)cc2)CC1)NC1CCCC1,0.2,2.3,-6.3,-9.0,i,-8.5,-2.1,-13.4,
COc1ccc2nc(NC(=O)C3CCN(C(=O)c4ccco4)CC3)sc2c1,-4.1,-8.7,0.9,1.0,i,14.7,-9.7,4.2,
OCC1(Cc2ccccc2C(F)(F)F)CCN(Cc2ccccc2)CC1,-0.4,8.5,23.4,9.7,i,-20.1,4.0,x,
COc1cccc(C2C(C(=O)c3cc4ccccc4o3)=C(O)C(=O)N2c2cc(C)on2)c1OC (centres undefined),8.2,2.8,-9.1,2.6,i,x,-5.2,x,
Cc1cc(-c2csc(NC(=O)c3ccc(=O)[nH]c3)n2)c(C)n1Cc1ccco1,-1.5,2.9,-10.8,u,i,8.4,u,x,
Nc1nonc1-n1nnc(C(=O)N/N=C/c2ccccc2Cl)c1CN1CCOCC1,1.6,0.3,-13.7,x,i,-11.1,x,-16.1,
COc1ccccc1-c1nc(=S)c(C(C)=O)c(C)[nH]1,-1.3,2.1,-1.3,6.7,i,-9.6,8.5,-28.5,
CCOC(=O)N1CCN(C(=O)Cc2ccccc2[N+](=O)[O-])CC1,-1.4,2.3,-2.9,0.1,i,4.3,0.4,-7.6,
CC(O)C(=O)N/N=C/c1cccc2ccccc12 (centres undefined),-3.5,0.2,x,1.4,i,-7.7,1.5,x,
CC(=O)N1CCN(c2nc(-c3ccco3)c3c(c2C#N)CC(C)(C)SC3)CC1,-22.4,6.5,1.9,u,i,x,u,18.3,
COC(=O)c1ccc(N=Nc2ccccc2)cc1,9.2,2.8,4.4,-4.9,i,-49.1,1.5,2.0,
Cc1sc2ncnc(N[C@@H](Cc3c[nH]c4ccccc34)C(=O)O)c2c1C,-2.7,3.8,-3.4,3.7,i,x,-3.6,x,
COc1ccccc1N(C(=O)c1snc(C(N)=O)c1N)C(C(=O)NC1CCCC1)c1ccc2ncccc2c1 (centres undefined),0.7,1.0,-1.3,0.4,x,-17.7,8.2,-14.3,
Cn1c(=O)n(CCOc2ccc([N+](=O)[O-])cc2)c2ccccc21,5.5,1.6,0.8,34.4,i,4.8,-9.3,-16.6,
Cc1ccc(Nc2nc(CSc3nnc(-c4ccccc4)n3C)cs2)cc1,4.7,4.8,9.2,-9.3,i,3.6,6.9,-30.9,
COc1ccccc1C(=O)NC(CCSC)C(=O)OCC(=O)c1ccc[nH]1 (centres undefined),-4.8,-0.8,-10.9,0.4*,i,6.4,59.7*,-12.8,eIF4H FP inh retest=92.0*;PABP polyA inh retest=83.8*
Nc1ccc(C(=O)OCC(=O)c2cccc([N+](=O)[O-])c2)cc1,2.4,1.1,11.5,-6.4,i,-6.0,-4.2,x,
COc1ccc(-n2c(-c3ccco3)nc3c(cnn3-c3ccccc3C)c2=O)cc1,-2.1,-4.2,x,1.3,i,19.2,-4.2,-3.9,
Clc1cccc(OCc2nc(-c3ccncc3)n[nH]2)c1,5.6,-2.1,21.6,-1.2,i,18.9,-3.3,x,
CCCOc1ccc(S(=O)(=O)N2CCOCC2)cc1[N+](=O)[O-],-1.3,-1.3,-6.1,-0.4,i,-0.7,-7.4,x,
CSc1nnc(-c2cc3c(-c4ccccc4)nn(C)c3s2)n1C,2.5,-2.1,0.7,-3.7,i,x,-2.3,-4.1,
COc1cc(C=O)cc(OC)c1OS(=O)(=O)c1ccc(NC(C)=O)cc1,3.6,-3.1,-1.6,9.0,i,-10.4,9.1,4.3,
COc1ccc(CC(=O)OCC(=O)NCc2ccccc2Cl)cc1,0.5,3.7,-11.9,26.3,i,0.4,4.4,x,
c1ccc(-c2nnc3oc(-c4cccs4)nn23)cc1,-4.0,-4.0,x,x,x,22.6,x,-14.9,
Cc1ccc(/C=N/n2c(COc3ccccc3)n[nH]c2=S)o1,1.4,7.3,-5.8,-4.0,i,-2.4,-0.6,-23.0,
CCOC(=O)CSc1nnc(-c2cccnc2)n1C,0.8,4.7,7.6,-7.2,i,-22.7,-4.8,-18.1,
CC(C)CC(NS(=O)(=O)c1ccc2c(c1)oc(=O)n2C)C(=O)NCc1cccnc1 (centres undefined),0.7,3.6,-3.2,-4.4,i,0.6,4.1,-27.3,
Cc1cc(-c2ccc(/C=N/n3cnnc3)o2)c(C)c([N+](=O)[O-])c1,-0.3,-1.5,4.7,6.4,i,-12.9,-6.8,-21.6,
O=C(O)c1ccc(N=NN2CCCCC2)cc1,-2.7,3.9,12.0,-8.2,i,-14.0,-4.4,x,
Cc1ccc(-c2cc(-c3ccccc3)[nH]c(=S)c2C#N)cc1,3.1,5.3,-15.5,-9.9,i,-48.8,-3.4,-17.8,
S=c1[nH]nc(-c2cccc(Cl)c2)n1Cc1ccccc1,0.0,5.1,-8.9,53.6,i,24.4,-2.5,x,eIF4H FP inh retest=-3.7;PABP polyA inh retest=-2.0
Cc1cccc(N2CCN(C(=O)c3ccc4nc(N5CCCCC5)sc4c3)CC2)c1C,-9.4,-18.4,83.6*,-4.0,i,29.3,7.6,-24.9,
CC[n+]1c(/C=C/C=C/N(C(C)=O)c2ccccc2)sc2cc(OC)ccc21,x,x,67.5,9.9,x,-42.6,u,x,
COc1ccc(NC(=S)N2CCN(C(c3ccccc3)c3ccccc3)CC2)cc1OC,-32.0,-13.8,10.2,3.6,i,-15.5,13.9,-28.0,
O=C(CO/N=C\c1ccccc1)Nc1ccccc1C(=O)N1CCOCC1,-2.0,-3.8,-13.6,14.7,i,24.1,-7.0,-7.8,
Cc1ccc(NC2=C(N3CCOCC3)C(=O)c3ccccc3C2=O)cc1,5.6,5.5,-1.6,0.3,i,x,0.1,-39.6,
COc1cc(=O)n(C)c2c(OCC(O)C(C)(C)O)cccc12 (centres undefined),2.2,-0.1,-8.8,x,x,0.0,x,9.7,
Cc1cccc(NC2=NC(=S)N(c3cccc(C(=O)O)c3)C23CCCCC3)c1,3.2,6.8,-12.8,-2.1,i,3.2,1.3,x,
Cc1nn(Cc2cccc(C(=O)NC34CC5CC(CC(C5)C3)C4)c2)c(C)c1Br,-2.4,-8.9,52.8,-0.3,i,2.2,-4.1,-16.2,
Cc1nc(N2CCN(S(=O)(=O)c3ccccc3)CC2)c2c3c(sc2n1)CC(C)CC3 (centres undefined),-26.6,-20.7,x,-3.0,x,x,-14.9,-3.3,
Cn1c(=O)c2c(nc(Sc3ncccn3)n2Cc2ccc(Cl)cc2)n(C)c1=O,-4.7,-0.8,-1.7,9.6,i,x,10.2,-7.0,
CC(=O)N1CCCc2cc(S(=O)(=O)Nc3ccccc3C)ccc21,0.8,2.3,-3.6,6.1,u,-6.1,-10.2,-13.4,
CCc1noc(C)c1C(=O)OCC(=O)NC(C)c1ccccc1 (centres undefined),0.1,2.4,x,x,x,-7.3,x,-9.9,
O=C(Nc1ccc2c(c1)OCO2)c1ccc(Br)s1,3.9,3.7,14.0,28.3,i,-267.9,-3.3,-27.1,
COc1ccc(N(C(C)=O)S(=O)(=O)c2cc(OC)ccc2OC)cc1,0.6,-1.6,-9.4,4.3,i,x,-8.7,24.1,
COc1ccc(C2(NC(C)=O)CCN(C(=O)CCC(=O)O)CC2)cc1,4.7,1.3,2.2,-6.0,i,x,-6.0,-8.8,
COc1ccccc1CNc1ncccn1,0.6,3.6,-10.5,11.2,i,13.5,3.6,-22.4,
Cc1ccc(-n2c(SCC(=O)Nc3ccc(C(=O)O)cc3)nnc2-c2ccncc2)cc1,-0.5,3.8,-9.8,-5.7,i,24.0,-6.2,2.8,
CC(C)Cc1nnc(NC(=O)c2cccc(S(=O)(=O)N3CCOCC3)c2)s1,3.0,-1.8,-11.4,x,x,1.8,x,-8.0,
CN1CCN(NC(=O)c2ccc(Cl)s2)CC1,1.2,3.2,x,-0.9,i,4.8,-1.2,-3.7,
COC(=O)c1ccccc1NC(NC(=O)c1ccco1)C(=O)c1ccccc1 (centres undefined),-1.6,-0.3,9.1,10.5,i,-49.5,-0.3,-11.3,
# Further compounds follow.
SMILES,MT1-MMP act inh,MT1-MMP act inh RFP,CSC inhib,PABP polyA inh,Rce1 inh,Env fusion inh,eIF4H FP inh,UUG fidelity,others
COCCNc1nc(NCCCN2CCCC2=O)c2sc(-c3ccccc3)cc2n1,1.6,-2.5,x,x,x,21.4,x,-7.2,
O=C(COc1cccc(Cl)c1)Nc1ccc2c(c1)CCC2,3.6,4.6,4.0,4.9,i,16.9,-4.3,x,
NC1=NC(=O)/C(=C/c2ccc(Cl)cc2Cl)S1,-0.8,2.1,0.9,-5.7,i,-3.6,6.6,-13.6,
O=C(CCc1nc2ccccc2c(=O)[nH]1)OCc1ccc(-c2ccccc2)cc1,-0.6,-3.5,8.2,2.5,i,-17.5,-15.6,x,
CCN(CC)CCN1C(=O)C(=O)/C(=C(/O)c2ccc(OC)cc2)C1c1ccco1 (centres undefined),-11.1,5.9,-1.9,4.2,i,x,12.5,-5.5,
CN(Cc1nc(-c2cccs2)no1)CC1(N2CCOCC2)CCCCC1,1.4,1.2,13.5,0.1,i,2.4,-7.4,-5.5,
Cc1ccc(C(=O)Nc2ccc3nc(C)sc3c2)o1,7.1,7.9,x,x,x,-1.1,x,-19.4,
O=C1C2CC=CCC2C(=O)N1CNc1ccccc1 (centres undefined),-2.2,-0.8,-8.0,2.6,i,-396.6,-2.4,-4.6,
CCOC(=O)c1c(C)n(-c2ccc(F)cc2)c2ccc(O)cc12,-2.6,-22.0,-2.3,-5.0,i,x,-7.2,0.4,

# Assay outcomes from PubChem BioAssay.
